# High-throughput results deposited in PubChem by several laboratories.
# Plk1 PBD FP: blocks phosphopeptide binding to human Plk1 polo box domain. P53350. Plk1 PBD phosphopeptide binding, fluorescence polarization. inhibition, %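 (tested at about 20 µM)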. actives 0.13% (n = 97,000); in the data active = inhibition above about 34%, passing the limit was not always enough
# CD11b adhes enh: increases human CD11b/CD18 adhesion to fibrinogen; P05107+P11215; activation, % at 10 µM; K562 CD11b/CD18 adhesion to fibrinogen, ATPlite luminescence; actives 0.07% (n = 93,000);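 active = 10 µM primary screen giving 50% or more activity, confirmed by 40% or more on retest at that dose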; note: strong numbers were not always called active
# ERb coact inh: ER-beta (human) coactivator binding inhibition; AID 633; Q92731; actives 1.3% (n = 86,000); inhibition, % at 25.6 µM; TR-FRET ER-beta LBD / SRC1-Cy5 peptide binding; receptor agonist-loaded with 1 µM estradiol;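 active = compounds whose percent inhibition of the receptor-coactivator binding signal exceeds about 50% in the single-dose screen, limit read from the data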;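 note: 0% = receptor plus peptide wells without compound and 100% = peptide-only wells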
# Target sequence (Q92731 whole entry, looked up, the tested form may be a part): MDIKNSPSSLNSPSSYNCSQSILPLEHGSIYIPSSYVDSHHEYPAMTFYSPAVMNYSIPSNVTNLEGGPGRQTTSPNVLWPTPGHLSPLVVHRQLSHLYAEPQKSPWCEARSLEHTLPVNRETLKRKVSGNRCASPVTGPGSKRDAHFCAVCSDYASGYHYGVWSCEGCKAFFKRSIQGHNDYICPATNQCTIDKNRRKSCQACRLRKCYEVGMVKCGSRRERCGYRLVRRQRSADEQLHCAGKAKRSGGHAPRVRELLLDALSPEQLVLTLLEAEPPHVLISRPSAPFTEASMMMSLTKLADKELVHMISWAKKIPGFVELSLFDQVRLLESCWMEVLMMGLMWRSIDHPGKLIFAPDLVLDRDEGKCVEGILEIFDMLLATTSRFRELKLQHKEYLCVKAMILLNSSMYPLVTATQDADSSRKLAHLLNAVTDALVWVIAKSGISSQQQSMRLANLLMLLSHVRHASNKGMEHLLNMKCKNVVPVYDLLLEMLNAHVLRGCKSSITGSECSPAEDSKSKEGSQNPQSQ
# ERa coact pot: ER-alpha (human) coactivator binding potentiation | TR-FRET ERalpha-LBD/SRC-Cy5 coactivator binding, 2 h; 100 = basal binding, no effect | coactivator binding (% of control), % at 25.6 µM | P03372 | AID 639 | actives 1.3% (n = 86,000); in the data active = activity above about 200%;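 note: binding measured in presence of low estradiol as agonist stimulus; 0% = peptide alone without receptor and 100% = receptor with peptide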
# Mac1 fbg inh: blocks human CD11b/CD18 adhesion to fibrinogen | actives 0.54% (n = 93,000) | K562 CD11b/CD18 adhesion to fibrinogen, ATPlite luminescence; Mn2+ added to activate the integrin | P05107+P11215 | inhibition, % at 10 µM;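 active = primary inhibition of 50% or more at 10 µM, then 40% or more on retest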; note: some results filed as inactive read as strong as hits
# PLK1 kinase inh: blocks human PLK1 kinase activity. AID 619. recombinant PLK1 kinase, TR-FRET peptide phosphorylation. actives 0.53% (n = 97,000). inhibition, % at 10 µM;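 active = inhibition of 50% or more in the single-concentration screen; inactive = inhibition below 50%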;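 note: 0% = DMSO max control and 100% = H-89 dihydrochloride min control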
# Rev-RRE block: inhibitors of HIV-1 Rev-RRE RNA interaction | actives 0.79% (n = 97,000) | inhibition, % at 8 µM | Rev peptide-RRE RNA binding, FRET | P05866 | AID 704;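 active = inhibition above the screen-wide mean plus 3 SD, cut at about 35% in these data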;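 note: 0% = median DMSO wells and 100% = median Neomycin B control wells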
# Target sequence (P05866 whole entry, looked up): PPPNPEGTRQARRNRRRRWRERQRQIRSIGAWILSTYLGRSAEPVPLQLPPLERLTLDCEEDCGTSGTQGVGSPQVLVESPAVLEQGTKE
#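 Test system: Cy5-tagged RRE RNA duplex with fluorescein-tagged Rev peptide; Probe or stimulus: labelled Rev peptide; Schedule: 5 min preincubation and 15 min binding, 25 °C; Signal: FRET fluorescence readout; Evaluation: % inhibition from 671/540 nm acceptor-to-donor ratio, scaled between controls; Control set: DMSO and neomycin B.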
# ERa SRC1 inh: ER-alpha (human) coactivator binding inhibition; P03372; TR-FRET ER-alpha LBD / SRC-1 peptide, estradiol-bound; inhibition, % at 25.6 µM; actives 1.7% (n = 86,000); AID 629; in the data active = inhibition above about 50%;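 note: 0% = receptor plus peptide control and 100% = peptide only without receptor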
# * marks the source's active call; other numbers are inactive results; · = not tested or not shown; [ ] = remark or other dose.
1) CCOC(=O)Nc1cccc(Nc2ccccc2)c1
2) CCCc1cc(-c2[nH]ncc2-c2ccc(C(=O)OCC)o2)c(O)cc1O
3) COc1ccc(NC(C)=O)cc1NC(C)C(=O)Nc1ccc(F)cc1 (stereo not drawn)
4) COc1cccc(OC)c1OCCOCCn1cnc2ccccc2c1=O
5) C=C(C)COc1ccc(-c2ncncc2Oc2ccc(OC)cc2)c(O)c1
6) CC(C)NC(=O)C(OC(=O)c1ccccc1)C(OC(=O)c1ccccc1)C(=O)O (stereo not drawn)
7) O=C(CS(=O)(=O)Cc1ccccc1)Nc1nc2c(s1)CCCC2
8) CCC(=O)NS(=O)(=O)c1cccnc1Nc1ccccc1Cl
9) COc1cc2nc(-c3ccc(Br)o3)oc(=O)c2cc1OC
10) Cc1cc(C)n(-c2ccc(C(=O)OCC(=O)NCc3ccco3)cc2)n1
Assay by compound,1,2,3,4,5,6,7,8,9,10
Plk1 PBD FP,8,18,-12,-11,2,20,-18,21,-13,-12
CD11b adhes enh,2,6,-2,4,4,·,-4,5,-5,-3
ERb coact inh,-17,-2,·,-1,0,·,8[fluorescence artefact?],·,17,4
ERa coact pot,105,82,·,127,78,·,85,·,86[fluorescence artefact?],107
Mac1 fbg inh,-18,2,-5,-27,5,·,-1,-5,-15,-6
PLK1 kinase inh,-8,-7,-10,0,0,-10,-5,-16,-10,-11
Rev-RRE block,-2,9,7,2,3,1,1,2,1,1
ERa SRC1 inh,-11,10,·,12,2,·,11,·,34[fluorescence artefact?],4

11) Fc1ccc(-c2cc3nc(-c4ccccc4)cc(N4CCN(CCN5CCOCC5)CC4)n3n2)cc1
12) CCCCc1nc2ccccc2n2cc3c(=O)n(C)c(=O)n(C)c3c12
13) COc1cc2c(cc1NC(=S)Nc1cccc3ccccc13)oc1ccccc12
14) Cc1nnc(SCC(=O)Nc2ccc(Cl)cn2)n1Cc1ccccc1
15) O=C(O)c1ccc(F)c(S(=O)(=O)Nc2ccccc2Cl)c1
16) Cc1nc2ccc(N)cc2c(=O)n1Cc1ccc(Cl)cc1
17) CCN(CC)S(=O)(=O)c1cccc(C(=O)NCCCN2CCOCC2)c1
18) c1ccc(C2C3=C(CCCC3)Nc3ncnn32)cc1 (stereo not drawn)
19) COc1ccc(-c2cnn(C3CCS(=O)(=O)C3)c2N)cc1 (stereo not drawn)
20) OC(CSc1c(Cl)cccc1Cl)CN1CCN(c2ccccc2F)CC1 (stereo not drawn)
Assay by compound,11,12,13,14,15,16,17,18,19,20
Plk1 PBD FP,-26,-3,-12,1,-7,14,-8,-22,-3,-27
CD11b adhes enh,-3,·,7,-4,-6,0,-1,-2,-2,6
ERb coact inh,-22,2[fluorescence artefact?],·,12,9,-29,-10,9,-6[fluorescence artefact?],·
ERa coact pot,106,98,·,121,132,102,128,91,111,·
Mac1 fbg inh,-2,·,7,-2,2,-2,-2,13,-28,4
PLK1 kinase inh,-10,-5,-10,-4,-14,-5,-12,3,-17,-9
Rev-RRE block,10,9,7,8,5,9,0,6,10,10
ERa SRC1 inh,-36,-1,·,4,7,-1,-6,-6,-2,·

21) Cc1cc(NC(=O)c2cc(Cl)ccc2Cl)no1
22) CCCc1cc(-c2[nH]ncc2-c2ccc3c(c2)OCCCO3)c(O)cc1OC
23) CCc1ccc(CCC(=O)Nc2nc(CC(C)=O)ns2)o1
24) O=C1CCCC2=C1C(c1cccs1)Nc1ccc3ncccc3c12 (stereo not drawn)
25) COc1cccc(OCC(=O)NNC(=O)c2ccc(-c3ccccc3)cc2)c1
26) COc1cccc(C2CN(c3ccc(F)cc3F)N=C2c2cccs2)c1OC (stereo not drawn)
27) CC1(C)CC(=O)C(C=Nc2ccccc2)=C(O)C1
28) CCOc1ccc(-c2nc(N)ncc2Oc2cccc(OC)c2)c(O)c1
29) CCOC(=O)C1CCCN(c2nc3ccccc3nc2C(C#N)C(=O)NCc2ccccc2)C1 (stereo not drawn)
30) COc1ccc(/C=C2/S/C(=N/N=C3\CC4CCC3(C)C4(C)C)NC2=O)cc1 (stereo not drawn)
31) O=C(CSc1nccc(=O)[nH]1)N1c2ccccc2CCc2ccccc21
32) CC(=O)c1ccc(NC(=O)CSc2nnc(-c3ccoc3C)n2Cc2ccccc2)cc1
33) O=C(Nc1ccc2c(c1)Cc1ccccc1-2)c1ccco1
Assay by compound,21,22,23,24,25,26,27,28,29,30,31,32,33
Plk1 PBD FP,-17,9,-23,19,14,-2,-15,-7,-11,-23,-9,-15,-13
CD11b adhes enh,-1,-1,-6,·,·,·,-5,3,6,-4,2,1,0
ERb coact inh,-12,-7,-4,·,·,-3,-2,2,1,·,-6,9,-4
ERa coact pot,128,74,117,·,·,106,88,106[fluorescence artefact?],118[fluorescence artefact?],·,115,69[fluorescence artefact?],120
Mac1 fbg inh,-6,22,3,·,·,·,-1,1,-30,15,-12,-39,-13
PLK1 kinase inh,-7,-5,-8,-6,-6,-30,-7,-7,-16,-4,-3,-7,-11
Rev-RRE block,4,14,7,4,0,8,-2,18,14,9,0,9,7
ERa SRC1 inh,0,-10,-2,·,·,-6,-10,0,5,·,-2,41,-7

# Entries above with a thiophene ring, fused or not (2):
24) O=C1CCCC2=C1C(c1cccs1)Nc1ccc3ncccc3c12 (stereo not drawn)
26) COc1cccc(C2CN(c3ccc(F)cc3F)N=C2c2cccs2)c1OC (stereo not drawn)
Assay by compound,24,26
Plk1 PBD FP,19,-2
CD11b adhes enh,·,·
ERb coact inh,·,-3
ERa coact pot,·,106
Mac1 fbg inh,·,·
PLK1 kinase inh,-6,-30
Rev-RRE block,4,8
ERa SRC1 inh,·,-6

# Sorted by value in CD11b adhes enh (lowest first): some entries from above
entry | mol | Plk1 PBD FP | CD11b adhes enh | ERb coact inh | ERa coact pot | Mac1 fbg inh | PLK1 kinase inh | Rev-RRE block | ERa SRC1 inh
27 | CC1(C)CC(=O)C(C=Nc2ccccc2)=C(O)C1 | -15 | -5 | -2 | 88 | -1 | -7 | -2 | -10
30 | COc1ccc(/C=C2/S/C(=N/N=C3\CC4CCC3(C)C4(C)C)NC2=O)cc1 (stereo not drawn) | -23 | -4 | · | · | 15 | -4 | 9 | ·
32 | CC(=O)c1ccc(NC(=O)CSc2nnc(-c3ccoc3C)n2Cc2ccccc2)cc1 | -15 | 1 | 9 | 69[fluorescence artefact?] | -39 | -7 | 9 | 41

# An excerpt. The share of hits here may be higher or lower than overall.
